Beta2AR agonist: beta2AR agonists driving receptor internalization, primary screen, cell-based, FAP fluorogen, flow cytometry; Beta-2 adrenergic receptor (Homo sapiens), P07550; Am2.2-beta2AR cells; reference of the scale not given here; response, % (test concentration not listed); 340,000 tested, 0.43% active; AID 504454, 2011;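 active means response above a set limit, near 3 SD of response in nonfluorescent compounds, cut at about 42% in these data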;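 further: stock transfer was 100 nL into about 11 µL; a reference agonist was the positive control; negative values mostly stem from fluorescent compounds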
Target sequence (P07550 whole entry, looked up): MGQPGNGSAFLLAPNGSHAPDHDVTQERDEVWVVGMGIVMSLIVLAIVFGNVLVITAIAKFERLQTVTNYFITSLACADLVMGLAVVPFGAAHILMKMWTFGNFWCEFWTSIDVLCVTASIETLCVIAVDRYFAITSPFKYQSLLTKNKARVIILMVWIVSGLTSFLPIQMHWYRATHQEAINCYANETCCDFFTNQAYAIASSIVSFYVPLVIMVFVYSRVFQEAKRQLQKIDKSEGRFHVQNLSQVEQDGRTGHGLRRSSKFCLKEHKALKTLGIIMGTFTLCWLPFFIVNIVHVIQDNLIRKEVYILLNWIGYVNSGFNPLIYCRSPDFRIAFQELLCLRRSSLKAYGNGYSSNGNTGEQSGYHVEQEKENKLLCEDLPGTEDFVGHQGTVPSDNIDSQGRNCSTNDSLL
HNF4A DNA FP: change in binding of human HNF4A to DNA, primary screen, biochemical, fluorescence polarization, FITC-DNA. activity change, % at 10 µM. 1 h. AID 1224865, 2016. 360,000 tested, 0.3% active; in the data active means activity change above about 30%, passing the limit was not always enough;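 further: controls were the assay level and a saturating level of protein; the project sought stronger binding though the title names inhibitors; some compounds called inactive have numbers as strong as hits; positive values seem to mean higher polarization but the record does not say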
Ecoli growth: E. coli growth inhibition, primary screen, OD600 | Escherichia coli growth, 23 h; stronger effect = lower value | OD600 absorbance (no concentration beside the values) | 330,000 tested, 0.21% active | AID 1053175, 2014;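 active means OD600 absorbance below the run mean of sample wells minus 3.6 SD, in any replicate, cut at about 0.56 in these data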;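 further: stock transfer was 300 nL into about 60 µL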
Bfl-1 A1 inh: caspase 3/7 activation in MEF A1-2A-BIM cells, primary screen, A1 inhibitor project, cell-based, luminescence, HTS. caspase activation, % (test concentration not listed). Caspase-Glo 3/7 luminescence, 3 h; percent of clofoctol response, vehicle zero. AID 2462, 2010. 330,000 tested, 0.066% active;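 active means over half of replicate activation scores above 10%, or exactly half above 10 with the replicate mean above 10; inconclusive means replicate mean below 10 yet half the replicates above 10; inactive means over half of replicates below 10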;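 further: wells of about 30 µL received 50 nL stock; many hits fall short of the cut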
LANA-H2B inh: blockers of LANA interaction with H2A/H2B – biochemical, FP readout, HTS, primary screen | 320,000 tested, 0.6% active | cell-free LANA-H2A/H2B peptide, fluorescence polarization | Protein LANA1 (Human herpesvirus 8 type P (isolate GK18)), Q9QR71 | inhibition, % (test concentration not listed); in the data active means inhibition mostly above about 10%, no sharp cut-off; inactive means mostly below about 6.7%;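 further: stock transfer was 7.5 nL into about 10 µL; 0% = median of vehicle wells and 100% = median of positive control wells; one replicate is shown; the record names a cut of 25% in any replicate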
Vif TR-FRET: inhibitors of Vif binding to APOBEC3G peptide, primary screen, biochemical, TR-FRET, GST-Vif 1-94, biotin-A3G peptide, dose response retest (AID 1117319) | Virion infectivity factor (Human immunodeficiency virus type 1 group M subtype B (isolate … | TR-FRET GST-Vif / biotin-A3G peptide binding; higher % means a stronger effect; test concentration not given here; strong numbers were not always called active | one-dose inhibition, %; IC50 in µM for titrated hits | 260,000 tested, 0.57% active;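 active means above the screen mean plus three standard deviations and confirmed in dose response; inconclusive means results disagree or hit not tested in dose response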;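 further: Vif residues 1-94 fused to GST binding biotinylated APOBEC3G peptide 110-148; 0% = full assay without inhibitor and 100% = GST in place of GST-Vif; retest series ran down from 100 µM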
UCH37 DUB inh: inhibitors of human UCH37 deubiquitinase, primary screen, biochemical, Ub-AMC cleavage, fluorescence | AID 588478, 2011 | purified proteasome/UCH37 | 330,000 tested, 0.33% active | inhibition, % (test concentration not listed);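 active means mean of two replicates above 20%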;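 further: 0% = compound-free wells with enzyme and 100% = wells lacking proteasome; stock transfer was 100 nL into about 20 µL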
Target sequence (Q9Y5K5 whole entry, looked up): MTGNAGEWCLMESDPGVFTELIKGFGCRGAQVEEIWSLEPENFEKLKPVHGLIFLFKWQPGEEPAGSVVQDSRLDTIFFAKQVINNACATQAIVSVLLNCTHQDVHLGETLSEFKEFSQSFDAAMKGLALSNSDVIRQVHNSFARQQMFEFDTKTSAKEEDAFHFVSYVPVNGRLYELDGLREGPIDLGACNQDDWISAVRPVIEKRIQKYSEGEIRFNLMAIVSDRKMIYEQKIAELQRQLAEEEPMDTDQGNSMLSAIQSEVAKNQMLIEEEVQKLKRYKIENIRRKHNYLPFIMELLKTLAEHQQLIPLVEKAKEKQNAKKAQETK
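Assay system: Proteasome-bound UCH37. Buffer or medium: pH 7.4 Tris-HCl (50 mM) with ovalbumin, ATP-MgCl2, DTT. Incubation: 30 min preincubation with enzyme, 25 min cleavage at room temperature. Measured by: fluorescence, ex 355 nm, em 460 nm. Read-out basis: percent inhibition. Control set: wells without proteasome as full block, compound-free enzyme plus substrate as uninhibited.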
Active calls of the source: *; ? = inconclusive; . = not tested or not shown; & = joins results of further samples. Outcome played no part in choosing rows. Share with any hit: about 2.1%.

SMILES | Beta2AR agonist | HNF4A DNA FP | Ecoli growth | Bfl-1 A1 inh | LANA-H2B inh | Vif TR-FRET | UCH37 DUB inh
COc1cccc(NC(=O)N2CCCC2C(=O)NC(C)C)c1 (stereo not drawn) | -1 | -1.1 | 0.71 | -0.2 | 4.3 | -4% | 1.5
O=C1CN(S(=O)(=O)c2ccc(F)cc2)CCN1 | 5 | 4.3 | 0.68 | -0.4 | 2.8 | 2% | 1.5
O=C(NCCc1cccs1)C1CC(c2cccc(F)c2)=NO1 (stereo not drawn) | -4 | -0.4 | 0.68 | -0.8 | 2.0 | -5% | -3.4
CCCN(CCC)S(=O)(=O)c1cc(CN2C(=O)c3cccnc3C2=O)ccc1OC | 13 | -0.9 | 0.67 | 0.1 | -0.9 | -1% | 6.5
COc1ccc(C(=O)N2CCN(S(=O)(=O)c3ccc(F)cc3)CC2)cc1OC | 2 | -2.8 | 0.72 | 0.0 | -0.1 | . | 0.7
N#Cc1c(N)nc(N2CCCC2)c(C#N)c1-c1ccc(Cl)cc1 | 5 | 3.8 | 0.73 | -0.4 | 1.2 | -132% | -21
CC1CC=C(O)C12OCC(C)(C)CO2 (stereo not drawn) | 4 | -2.6 | 0.65 | . | . | -1% | 0.7
Cc1cccc(-n2c(Cc3cc(=O)[nH]c(=O)[nH]3)nnc2SCC(=O)N2CCCCC2)c1 | 2 | 1.9 | . | -1.6 | 1.7 | 31% | .
O=C(c1ccc(Cl)cc1)N(c1ccccn1)C1CCCCC1 | 2 | -0.4 | 0.61 | 1.3 | -0.6 | . | 3.0
CC1(c2ccccc2)NC(=O)N(CC(=O)Nc2ccc3c(c2)CCC3)C1=O (stereo not drawn) | -6 | 2.0 | 0.68 | 0.2 | -2.7 | . | 3.7
CCOC(=O)C1CCN(C(=O)C2(NC(=O)Nc3ccc(F)cc3F)CCCCC2)CC1 | 3 | 0.5 | 0.66 | 0.1 | -0.1 | . | 5.4
CC(C)n1nc(C(=O)Oc2ccc(Cl)cc2)c2ccccc2c1=O | 7 | -5.1 | 0.7 | 0.0 | -8.5 | -2% | 0.3
CCCOc1ccc(NC2=CC(=O)CC(C)(C)C2)cc1 | -4 | 3.0 | 0.69 | 0.8 | -1.2 | 7% | 2.6
O=C(NCc1ccco1)C1CCCN(S(=O)(=O)Cc2ccccc2)C1 (stereo not drawn) | 0 | -0.5 | 0.68 | 0.8 | -5.1 | 27% | 3.7
CCN1C(=O)[C@H]2[C@H]3CN=C(SCc4ccc(Cl)cc4)N3[C@@](Cc3ccccc3)(C(=O)OC)[C@H]2C1=O | 0 | 0.2 | 0.72 | . | . | -8% | 5.1
O=C(CCS(=O)(=O)c1ccc(Br)cc1)NC1CCCCCC1 | -9 | -19 | 0.7 | -0.2 | 2.1 | ? | 5.0
Cc1[nH]nc(SCC(=O)NCc2ccc(Cl)cc2)c1[N+](=O)[O-] | 7 | -1.4 | 0.69 | -0.1 | 9.7 | . | 0.8
O=C(Cc1c[nH]c2ccccc12)NC1(C(=O)NC2CCCC2)CCCCC1 | -2 | 1.4 | 0.73 | -0.9 | . | -9% | -0.7
COc1cc(OC)c(NC(=O)CCc2nc(-c3cccs3)no2)cc1Cl | 4 | -3.7 | 0.7 | 1.2 | -2.6 | 3% | 3.8
O=S(=O)(NCc1ccncc1)c1ccccc1 | -4 | -1.3 | 0.7 | 0.3 | 1.1 | -2% | -4.2
Cc1cc(C)cc(N2C(=O)CC(Cn3nc(C)cc3C)C2=O)c1 (stereo not drawn) | 8 | -0.8 | 0.7 | 0.2 | -5.8 | 3% | 6.3
Cc1ccnc(Cc2ccccc2)n1 | 3 | 1.9 | 0.66 | 0.6 | -3.8 | 1% | 1.6
O=C(CN(c1ccc2c(c1)OCCO2)S(=O)(=O)c1ccccc1)Nc1ccc2c(c1)OCO2 | 18 | 0.1 | 0.78 | -1.5 | 5.9 | 4% | 3.2
N=c1c(C(=O)NCCc2ccccc2)cc2c(=O)n3ccccc3nc2n1CC1CCCO1 (stereo not drawn) | -9 | 5.3 | . | -0.6 | -2.2 | . | .
CCN1C(=O)c2cccc3c(NC(=O)c4ccc5c(c4)OCCO5)ccc1c23 | -10 | 60* | 0.65 | 0.6 | -0.4 | 8% | -8.5
O=C(COc1ccc2c(-c3ccccc3)cc(=O)oc2c1)NCCCN1CCOCC1 | -7 | 1.6 | 0.66 | -0.2 | -8.5 | 7% | 3.1
COc1ccc(NC(=O)COC(=O)c2ccc3ccccc3n2)cc1OC | 5 | 1.9 | 0.71 | 1.5 | -1.2 | -9% | 1.4
COc1cccc(CNCc2cccnc2)c1OCc1ccccc1 | -2 | -3.4 | 0.69 | 0.9 | 1.1 | . | 4.5
Nc1cccc(Oc2ccc3c(c2)C(=O)N(CC2CCCO2)C3=O)c1 (stereo not drawn) | -5 | 0.4 | 0.66 | ? | -0.5 | . | 2.6
COc1cc(C(=O)NCc2nnc(SCC(=O)Nc3cccc(C)c3)o2)cc(OC)c1OC | 6 | -0.8 | 0.72 | 1.0 | 0.7 | -2% | 5.8

Fetched by compound from the entries so far:
SMILES | Beta2AR agonist | HNF4A DNA FP | Ecoli growth | Bfl-1 A1 inh | LANA-H2B inh | Vif TR-FRET | UCH37 DUB inh
COc1cccc(NC(=O)N2CCCC2C(=O)NC(C)C)c1 (stereo not drawn) | -1 | -1.1 | 0.71 | -0.2 | 4.3 | -4% | 1.5
COc1ccc(NC(=O)COC(=O)c2ccc3ccccc3n2)cc1OC | 5 | 1.9 | 0.71 | 1.5 | -1.2 | -9% | 1.4
Cc1[nH]nc(SCC(=O)NCc2ccc(Cl)cc2)c1[N+](=O)[O-] | 7 | -1.4 | 0.69 | -0.1 | 9.7 | . | 0.8

Additional results.
SMILES | Beta2AR agonist | HNF4A DNA FP | Ecoli growth | Bfl-1 A1 inh | LANA-H2B inh | Vif TR-FRET | UCH37 DUB inh
COC(=O)Cc1cc(=O)[nH]c(/N=C(\N)Nc2cccc(C)c2)n1 | -5 | 0.0 | . | -0.4 | 5.3 | 6% | .
CCCC(C)NC(=O)COC(=O)c1cccc(NS(C)(=O)=O)c1 (stereo not drawn) | 1 | 2.9 | 0.7 | -0.2 | 3.5 | . | 0.6
O=C(CSc1ccc2nnc(-c3cccnc3)n2n1)Nc1ccccc1 | 3 | -2.9 | 0.71 | 0.1 | -15 | 4% | 0.7
Cc1cccc2c(C(=O)O)c3cccc(C)c3nc12 | -1 | 0.9 | 0.71 | 0.4 | 0.8 | . | -427
N#Cc1c(-c2cccs2)nc(SCC(=O)c2ccc(Br)cc2)[nH]c1=O | 7 | 11 | 0.7 | 0.1 | -3.1 | . | 10
COc1ccccc1N=Nc1ccc(O)c2ncccc12 | 4 | -0.5 | 0.71 | -0.9 | 4.4 | 11% | 4.8
CN(CCC1CCCCO1)C(=O)CCc1nnc(Cc2c[nH]c3ccccc23)o1 (stereo not drawn) | -1 | 5.7 | 0.69 | 0.1 | -2.3 | 6% | 3.1
S=C(N/N=C/c1ccc(Cl)cc1)N1CCOCC1 | -2 | 0.6 | . | -1.7 | -1.1 | 0% | .
O=C(C1COc2ccccc2O1)N1CCCCC1 (stereo not drawn) | 10 | 6.9 | 0.64 | 0.4 | -0.8 | 9% | 1.7
CCC1CCCCN1S(=O)(=O)c1ccc(NC(=O)c2cccnc2)cc1 (stereo not drawn) | 2 | -0.9 | 0.71 | 0.5 | -2.5 | . | 6.0
OCc1cc(CO)c(O)c(CCc2ccccc2)n1 | 1 | 0.8 | 0.73 | 0.7 | -4.6 | ? | -17
CCOC(=O)CNS(=O)(=O)c1ccc(C(=O)O)cc1 | 5 | 0.7 | 0.76 | -0.8 | 7.0 | 0% | -1.2
O=C1CCC(c2ccccc2)(C2CCN(Cc3ccccc3)CC2)C(=O)N1 (stereo not drawn) | -10 | 2.9 | . | -0.2 | -1.6 | . | 1.9
Cc1cccc(C)c1NC(=S)N(Cc1ccccc1)Cc1cccs1 | 3 | -2.4 | 0.69 | -0.1 | 0.0 | 7% | 5.3
CNC(=O)CSc1nnc(COc2ccc(Cl)cc2)n1CCOC | -12 | 1.8 | 0.68 | -0.5 | 0.5 | 18% | 3.9
CCOC(=O)N1CCN(C(=S)NCCOC)CC1 | -5 | -4.3 | 0.73 | 0.3 | 4.3 | 4% | 2.9
O=C(NC(=O)N1CCN(c2cccc(Cl)c2)CC1)c1ccc(Cl)cc1 | -4 | -1.9 | 0.67 | -0.7 | -5.6 | . | 5.3
Cn1nnnc1SCC(=O)c1cccs1 | 5 | 2.1 | 0.68 | 0.4 | 2.0 | 10% | 5.6
COc1ccc(C(=O)C2CCCN(C(=O)C3CCOCC3)C2)c(C)c1 (stereo not drawn) | 0 | 3.2 | 0.65 | -0.4 | 1.3 | 5% | -0.5
O=C(c1ccccc1)N1CCN(c2ncnc3sc4c(c23)CCC4)CC1 | -3 | 8.2 | 0.74 | -0.1 | 0.3 | 0% | -0.2
CCOC(=O)c1ccccc1NC(=S)N1CCCCC1 | -3 | 0.1 | 0.66 | -0.2 | 2.6 | 1% | 2.8
Cc1cc(-c2nc(C)c(C(=O)NNS(=O)(=O)c3ccc(Cl)cc3Cl)s2)no1 | 9 | 2.9 | 0.67 | -0.2 | -0.7 | -2% | 4.4
O=C(O)c1ccc(-n2c(O)c(C=C3N=c4ccccc4=N3)sc2=S)cc1 | 0 | 6.1 | 0.67 | -0.4 | 9.0 | 9% | 8.7
COc1cc2cc(C(c3nnnn3C3CCCC3)N3CCCCCC3)c(=O)[nH]c2cc1OC (stereo not drawn) | -1 | 0.5 | 0.67 | -0.7 | -2.1 | 9%&-12% | -11
Cc1cccc(CS(=O)(=O)Cc2ccc(C(=O)NCc3ccccc3)o2)c1 | -4 | 1.7 | 0.7 | -0.2 | 3.4 | . | -0.2
CS(=O)(=O)c1nc(S(=O)(=O)c2ccc(Cl)cc2)c(N2CCC(C(N)=O)CC2)s1 | 0 | 4.9 | 0.67 | 0.7 | 2.9 | 4% | 4.4
Cc1cccc(C(=O)OCC(=O)N2CCCCCC2)c1 | 11 | -0.9 | 0.69 | -1.5 | -0.4 | 1% | 1.3
Cc1cc(C)cc(NC(=S)N(CCN(C)C)C(C)c2cccnc2)c1 (stereo not drawn) | 8 | 1.3 | 0.65 | -0.4 | -0.4 | -9% | 0.2
CCOc1ccc2[nH]cc(-c3csc(N)n3)c2c1 | 5 | 11 | 0.68 | 1.3 | -3.0 | 7% | 1.4
C/C(CC(=O)Nc1ccc(C)c(Cl)c1)=N\NC(=O)c1ccncc1 | 2 | -1.9 | . | . | . | 2% | .
CCc1ccc(NC(=O)NCc2ccc3c(c2)OCO3)cc1 | -3 | 1.9 | 0.71 | 1.5 | 0.1 | . | 0.5
O=C(CSc1nnc(-c2ccc(OC(F)F)cc2)o1)N1CCOCC1 | -3 | -6.5 | 0.7 | 0.2 | 2.7 | ? | 6.5
COc1ccc(-c2cc(=O)oc3cc(OCC(=O)N4CCOCC4)ccc23)cc1 | -8 | -1.8 | 0.71 | 1.0 | 8.2 | . | -5.7
COc1ccc(C(=O)/C=C/c2cc(C(=O)O)cc3c2OCOC3)c(O)c1 | 18 | -6.0 | 0.71 | -0.5 | -0.7 | 15% | 6.5
COC(=O)CN(c1ccc(C)cc1)S(=O)(=O)c1ccc(F)cc1 | 2 | 1.4 | 0.65 | -0.5 | -3.0 | ? | 2.6
